Assay outcomes as filed in PubChem BioAssay.
FGF22 binding = binders of human FGF22 protein, primary screen, FGF22 synaptogenesis inhibitor project, biophysical, thermal shift, single point. Fibroblast growth factor 22 (Homo sapiens), Q9HCT0. recombinant FGF22 thermal shift, SYPRO orange fluorescence; percent of sucrose octasulfate shift, DMSO zero. calls only at 9.99 µM. actives 1.5% (n = 340,000);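 active = melting point raised past a set limit in the mean and every replicate; three in four hits are not shown here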
Target sequence (Q9HCT0 whole entry, looked up): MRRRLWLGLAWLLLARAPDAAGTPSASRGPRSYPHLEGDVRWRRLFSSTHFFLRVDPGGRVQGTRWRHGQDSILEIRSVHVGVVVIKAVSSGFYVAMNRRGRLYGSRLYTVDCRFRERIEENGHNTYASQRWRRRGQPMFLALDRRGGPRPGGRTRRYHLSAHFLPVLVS
MLL AF4-AF9 inh = inhibitors of AF4 peptide binding to AF9, primary screen, biochemical, AlphaScreen, biotin-AF4 peptide, FLAG-AF9, single point. AID 651704, 2012. inhibition, % at 10 µM. actives 0.47% (n = 350,000);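 active = every replicate reaching a set inhibition limit, whatever the replicate mean, cut at about 25% in these data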;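 note: 0% = plate neutral control median and 100% = total signal loss; the record names both 10 and 1 µM as test concentration; the first replicate is given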
Target sequence (P42568 whole entry, looked up): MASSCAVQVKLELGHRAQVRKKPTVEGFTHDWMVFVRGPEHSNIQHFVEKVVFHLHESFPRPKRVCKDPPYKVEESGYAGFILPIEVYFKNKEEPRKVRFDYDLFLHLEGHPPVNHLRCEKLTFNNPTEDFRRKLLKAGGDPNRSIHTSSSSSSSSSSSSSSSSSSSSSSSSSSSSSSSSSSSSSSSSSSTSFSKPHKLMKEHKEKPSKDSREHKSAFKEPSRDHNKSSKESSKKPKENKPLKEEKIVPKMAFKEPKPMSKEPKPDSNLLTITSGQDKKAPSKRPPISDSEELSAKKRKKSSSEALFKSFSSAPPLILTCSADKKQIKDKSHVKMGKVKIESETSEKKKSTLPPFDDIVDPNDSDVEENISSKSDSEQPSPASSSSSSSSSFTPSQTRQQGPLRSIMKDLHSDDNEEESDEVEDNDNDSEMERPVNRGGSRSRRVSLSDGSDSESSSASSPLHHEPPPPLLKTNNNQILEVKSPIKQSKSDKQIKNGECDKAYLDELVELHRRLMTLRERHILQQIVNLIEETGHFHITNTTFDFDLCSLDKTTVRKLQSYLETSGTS
An asterisk follows results filed as active; i = inactive. This is a subset; rates above refer to the full screens.

SMILES | FGF22 binding | MLL AF4-AF9 inh
CC(C)NC(=O)N[C@@H]1CC[C@H](CC(=O)O)O[C@H]1CO | i | -2.0
O=C(C[C@@H]1C=C[C@H](NS(=O)(=O)c2ccc(F)cc2)[C@H](CO)O1)NC1CCCCC1 | i | -5.4
Cc1ccc(-c2ccc3c(c2)O[C@H](CN(C)C(=O)C2CC2)[C@H](C)CN([C@H](C)CO)S3(=O)=O)cc1 | i | 3.2
CC(C)NC(=O)Nc1ccc2c(c1)C(=O)N([C@H](C)CO)C[C@@H](C)[C@H](CN(C)CC1CCCCC1)OCCCC[C@H](C)O2 | i | 1.9
C[C@H]1CN([C@@H](C)CO)C(=O)Cc2cc(NS(=O)(=O)c3cn(C)cn3)ccc2O[C@@H]1CN(C)Cc1ccccc1 | i | -1.6
Cc1ccc(S(=O)(=O)Nc2ccc3c(c2)CC(=O)N([C@@H](C)CO)C[C@H](C)[C@H](CN(C)S(=O)(=O)c2cccs2)O3)cc1 | i | -12
COc1ccc(NC(=O)Nc2ccc3c(c2)CC(=O)N([C@H](C)CO)C[C@@H](C)[C@H](CN(C)C(=O)NC2CCCCC2)O3)cc1 | i | 0.3
C[C@H]1CN([C@@H](C)CO)C(=O)c2cc(N(C)C)ccc2O[C@H]1CN(C)C(=O)Nc1ccc(C(F)(F)F)cc1 | i | 11
CO[C@H]1CN(C)C(=O)c2cc(NC(=O)C3CC3)ccc2OC[C@H](C)N(C(=O)CN(C)C)C[C@@H]1C | i | 1.7
COCC(=O)NC[C@H]1N[C@H](CO)[C@H]1c1ccc(C2=CCCCC2)cc1 | i | 8.8
COc1ccc(CNC(=O)C[C@H]2CC[C@H](NC(=O)c3ccc4c(c3)OCO4)[C@H](CO)O2)cc1 | i | -0.7
CCC(=O)N[C@H]1CC[C@@H](CC(=O)NCC2CCCCC2)O[C@H]1CO | i | -1.3
Cc1noc(C)c1S(=O)(=O)Nc1ccc2c(c1)C(=O)N([C@@H](C)CO)C[C@@H](C)[C@H](CN(C)C(=O)NC(C)C)OCCCC[C@H](C)O2 | i | -3.8
C[C@@H]1CN([C@H](C)CO)C(=O)c2cc(NC(=O)CCC(F)(F)F)ccc2O[C@@H]1CN(C)C | i | -2.0
COC(=O)c1cc(S(=O)(=O)NCC2CCN(C(=O)C(=O)c3cc4ccccc4o3)CC2)cs1 | i | 1.7
CCC(=O)N1CC2(CN(Cc3cccnc3)C2)c2c(n(C)c3cc(OC)ccc23)[C@H]1CO | i | -0.4
CO[C@@H]1CN(C)C(=O)c2cc(NC(=O)Nc3ccccc3Cl)ccc2OC[C@H](C)NC[C@@H]1C | i | -1.0
C[C@H](CO)N1C[C@H](C)[C@@H](CN(C)C(=O)c2ccc(F)cc2)Oc2ncc(C#CC3CC3)cc2C1=O | i | -0.8
COc1cccc(C#Cc2ccc([C@@H]3[C@@H](CO)N4C(=O)CN(S(=O)(=O)c5ccccc5C)C[C@@H]34)cc2)c1 | i | -3.2
COc1cccc(S(=O)(=O)Nc2ccc3c(c2)[C@H]2C[C@@H](CC(=O)NCc4ccc(Cl)cc4)O[C@@H](CO)[C@H]2O3)c1 | i | 0.5
CC(C)NC(=O)N(C)C[C@H]1OCCCC[C@H](C)Oc2ccc(NS(C)(=O)=O)cc2C(=O)N([C@H](C)CO)C[C@@H]1C | i | -3.3
C[C@@H]1CCCCO[C@@H](CN(C)S(=O)(=O)c2ccc(Cl)cc2)[C@@H](C)CN([C@H](C)CO)C(=O)c2cc(NS(=O)(=O)c3cn(C)cn3)ccc2O1 | i | -8.0
CC(C)NC(=O)Nc1ccc2c(c1)CC(=O)N([C@H](C)CO)C[C@@H](C)[C@H](CN(C)S(=O)(=O)c1cn(C)cn1)O2 | i | -3.6
Cc1noc(C)c1NC(=O)Nc1cccc2c1O[C@@H](CN(C)S(C)(=O)=O)[C@H](C)CN([C@@H](C)CO)C2=O | i | -0.8
Cc1noc(C)c1NC(=O)N(C)C[C@H]1OCCCC[C@@H](C)Oc2ccc(NC(=O)NC3CCCCC3)cc2C(=O)N([C@H](C)CO)C[C@@H]1C | i | -13
C[C@H](CO)N1C[C@H](C)[C@H](CN(C)C(=O)C2CC2)Oc2cc(C#Cc3ccncc3)ccc2S1(=O)=O | i | 0.9
C[C@H](CO)N1C[C@H](C)[C@H](CN(C)CC2CC2)Oc2cc(-c3ccc(F)cc3)ccc2S1(=O)=O | i | 2.3
C[C@H](NC(=O)[C@H]1[C@H](CO)[C@H]2Cn3c(ccc(-c4ccncc4)c3=O)[C@@H]1N2C)c1ccccc1 | i | -1.5
COCC#Cc1cnc2c(c1)C(=O)N([C@@H](C)CO)C[C@@H](C)[C@H](CN(C)C(=O)Cc1cccnc1)O2 | i | -0.3
N#C[C@H]1[C@@H](c2ccc(/C=C/c3ccccc3)cc2)[C@@H](CO)N1C(=O)Nc1ccccc1F | i | 1.6
CCCNC(=O)C[C@H]1CC[C@H]2[C@@H](COC[C@@H](O)CN2C(=O)Nc2ccc(Cl)c(Cl)c2)O1 | i | 3.8
C[C@@H]1CN([C@H](C)CO)C(=O)Cc2cc(NC(=O)Nc3ccc(C(F)(F)F)cc3)ccc2O[C@H]1CN(C)Cc1ccccc1 | i | 2.3
COc1cccc(-c2ccc3c(c2)[C@H]2[C@H](CCN2S(=O)(=O)c2ccccc2OC)[C@@H](CO)N3C)c1 | i | 0.5
COc1ccc(CN(C)C[C@H]2OCCCC[C@H](C)Oc3ccc(NS(=O)(=O)c4ccccc4)cc3C(=O)N([C@H](C)CO)C[C@@H]2C)cc1 | i | 2.0
C[C@@H]1CN([C@@H](C)CO)S(=O)(=O)c2ccc(/C=C/c3ccccc3)cc2O[C@H]1CN(C)C(=O)c1ccncc1 | i | 15
CNC[C@H]1Oc2ccc(NC(=O)Nc3ccccc3)cc2C(=O)N([C@@H](C)CO)C[C@@H]1C | i | -0.9
Cc1ccc(S(=O)(=O)Nc2cccc3c2O[C@@H](CN(C)S(=O)(=O)c2cccs2)[C@H](C)CN([C@H](C)CO)C3=O)cc1 | i | -1.1
CN(C)CC(=O)N[C@@H]1CC[C@@H](CCNC(=O)Nc2ccc(Cl)cc2)O[C@H]1CO | i | 11
CNC[C@H]1OCCCC[C@@H](C)Oc2ccc(NC(=O)NC(C)C)cc2C(=O)N([C@H](C)CO)C[C@H]1C | i | -2.7
C[C@H]1CN([C@@H](C)CO)C(=O)Cc2cc(NS(=O)(=O)c3ccc(F)cc3)ccc2O[C@@H]1CN(C)C(=O)Nc1cccc2ccccc12 | i | 1.6
C[C@@H]1CN([C@H](C)CO)C(=O)Cc2cc(NS(=O)(=O)c3ccccc3)ccc2O[C@H]1CN(C)S(=O)(=O)c1cn(C)cn1 | i | 0.2
CN1C(=O)c2cc(NC(=O)c3ccc(F)c(F)c3)ccc2OC[C@@H]2O[C@@H](CC(=O)N3CCOCC3)CC[C@@H]21 | i | -2.0
COc1ccc(S(=O)(=O)N(C)C[C@@H]2OCCCC[C@H](C)Oc3ccc(NS(=O)(=O)c4ccc(Cl)cc4)cc3C(=O)N([C@@H](C)CO)C[C@H]2C)cc1 | i | -1.0
C[C@@H]1CN([C@H](C)CO)S(=O)(=O)c2ccc(-c3ccc(C#N)cc3)cc2O[C@@H]1CN(C)Cc1ccccn1 | i | 3.6
C[C@H](CO)N1C[C@H](C)[C@@H](CN(C)S(=O)(=O)c2ccc(F)cc2)OCCCC[C@H](C)Oc2ccc(NC(=O)Nc3cccc4ccccc34)cc2C1=O | i | -1.7
C[C@@H]1CN([C@H](C)CO)C(=O)Cc2cc(NC(=O)Cc3ccccc3)ccc2O[C@H]1CN(C)Cc1ccc(C(F)(F)F)cc1 | i | -0.4
Cc1ccc(S(=O)(=O)N(C)C[C@@H]2OCCCC[C@@H](C)Oc3ccc(NS(=O)(=O)c4ccc(F)cc4)cc3C(=O)N([C@H](C)CO)C[C@@H]2C)cc1 | i | -0.7
Cc1ccc(S(=O)(=O)N(C)C[C@H]2Oc3ccc(NC(=O)Cc4ccccc4)cc3CC(=O)N([C@@H](C)CO)C[C@H]2C)cc1 | i | -0.3
CC(C)NC(=O)N1CC(=O)N2[C@H](C1)[C@@H](c1ccc(/C=C/c3ccccc3)cc1)[C@@H]2CO | i | 1.7
COc1ccc(S(=O)(=O)Nc2cccc3c2O[C@H](CN(C)CC2CC2)[C@H](C)CN([C@@H](C)CO)C3=O)cc1 | i | -14
O=C(C[C@H]1C=C[C@@H](NC(=O)CN2CCOCC2)[C@H](CO)O1)NC1CCC1 | i | 4.1
C[C@H]1CN([C@@H](C)CO)C(=O)c2cc(N(C)C)ccc2O[C@H]1CN(C)Cc1ccc(Oc2ccccc2)cc1 | i | 45*
C[C@@H]1CCCCO[C@@H](CN(C)C(=O)CCCN(C)C)[C@@H](C)CN([C@H](C)CO)C(=O)c2cc(NC(=O)NC3CCCCC3)ccc2O1 | i | -1.5
CNC(=O)C[C@@H]1CC[C@H]2[C@@H](COc3ccc(NC(=O)Nc4ccc(C)cc4)cc3C(=O)N2C)O1 | i | -1.8
Cc1ccc(S(=O)(=O)N[C@@H]2CC[C@@H](CCNC(=O)Nc3ccc(Cl)cc3)O[C@@H]2CO)cc1 | i | 6.2
Cc1noc(C)c1S(=O)(=O)N(C)C[C@@H]1OCc2cn(nn2)CCCC(=O)N([C@H](C)CO)C[C@@H]1C | i | 0.7
O=C(NCC[C@@H]1CC[C@@H](NC(=O)c2cnccn2)[C@@H](CO)O1)Nc1ccc(Cl)cc1 | i | 8.9
CN(C)CC#Cc1ccc([C@H]2[C@@H](CO)N3CCCCN(CC4CC4)C[C@H]23)cc1 | i | 26*
C[C@@H]1CN([C@H](C)CO)C(=O)c2cc(NS(C)(=O)=O)ccc2O[C@@H]1CN(C)Cc1ccc(Oc2ccccc2)cc1 | i | -1.4
COC(=O)C[C@H]1C[C@H]2c3cc(NC(=O)Cc4ccncc4)ccc3O[C@H]2[C@H](CO)O1 | i | 1.2

Rewritten with values under each structure: 5 of the compounds above.
The line under a structure holds: FGF22 binding | MLL AF4-AF9 inh
C[C@@H]1CCCCO[C@@H](CN(C)C(=O)CCCN(C)C)[C@@H](C)CN([C@H](C)CO)C(=O)c2cc(NC(=O)NC3CCCCC3)ccc2O1
    i | -1.5
CCC(=O)N1CC2(CN(Cc3cccnc3)C2)c2c(n(C)c3cc(OC)ccc23)[C@H]1CO
    i | -0.4
COCC(=O)NC[C@H]1N[C@H](CO)[C@H]1c1ccc(C2=CCCCC2)cc1
    i | 8.8
C[C@H](CO)N1C[C@H](C)[C@H](CN(C)CC2CC2)Oc2cc(-c3ccc(F)cc3)ccc2S1(=O)=O
    i | 2.3
Cc1ccc(S(=O)(=O)N(C)C[C@@H]2OCCCC[C@@H](C)Oc3ccc(NS(=O)(=O)c4ccc(F)cc4)cc3C(=O)N([C@H](C)CO)C[C@@H]2C)cc1
    i | -0.7

Shown as a hit in MLL AF4-AF9 inh, among the entries above:
SMILES,MLL AF4-AF9 inh
C[C@H]1CN([C@@H](C)CO)C(=O)c2cc(N(C)C)ccc2O[C@H]1CN(C)Cc1ccc(Oc2ccccc2)cc1,45*
CN(C)CC#Cc1ccc([C@H]2[C@@H](CO)N3CCCCN(CC4CC4)C[C@H]23)cc1,26*

The list continues:
SMILES | FGF22 binding | MLL AF4-AF9 inh
O=C(C[C@H]1CC[C@@H]2[C@H](COC[C@H](O)CN2C(=O)Nc2ccc(C(F)(F)F)cc2)O1)NCC1CCCCC1 | i | -0.1
COc1cccc(NC(=O)N(C)C[C@@H]2Oc3ncc(C#Cc4ccncc4)cc3C(=O)N([C@H](C)CO)C[C@H]2C)c1 | i | -2.6
C[C@H]1CN([C@@H](C)CO)C(=O)c2cc(NS(=O)(=O)c3ccccc3)ccc2O[C@@H]1CN(C)Cc1ccc(C(=O)Nc2ccccc2N)cc1 | i | -1.3
C[C@@H]1CN([C@H](C)CO)C(=O)c2cccc(NC(=O)Nc3ccc4c(c3)OCO4)c2O[C@H]1CN(C)Cc1ccc2c(c1)OCO2 | i | 5.7
CCC(=O)N(C)C[C@H]1Oc2cc(-c3ccccc3OC)ccc2S(=O)(=O)N([C@H](C)CO)C[C@@H]1C | i | -11
O=S(=O)(N[C@H]1CC[C@H](CCn2cc(C3CC3)nn2)O[C@@H]1CO)c1ccc(Cl)cc1 | i | -1.4
COc1ccc(S(=O)(=O)N[C@H]2CC[C@H](CC(=O)O)O[C@H]2CO)cc1 | i | -0.6
O=C(O)[C@H]1[C@H](CO)[C@H]2Cn3c(ccc(/C=C/c4ccccc4)c3=O)[C@H]2N1C(=O)c1cnccn1 | i | 1.2
C[C@@H]1CCCCO[C@H](CN(C)C(=O)c2ccccc2)[C@H](C)CN([C@H](C)CO)C(=O)c2cc(NS(=O)(=O)c3cccs3)ccc2O1 | i | 4.6
COc1ccc(NC(=O)Nc2ccc3c(c2)C(=O)N([C@H](C)CO)C[C@H](C)[C@@H](CN(C)Cc2ccc(C(=O)O)cc2)OCCCC[C@@H](C)O3)cc1 | i | -0.5
COc1ccc(NC(=O)N(C)C[C@@H]2Oc3ccc(NC(=O)CCCCCC(=O)Nc4ccccc4N)cc3CC(=O)N([C@@H](C)CO)C[C@@H]2C)cc1 | i | 0.0
C[C@@H]1CN([C@@H](C)CO)C(=O)Cc2cc(NC(=O)CCCCCC(=O)Nc3ccccc3N)ccc2O[C@@H]1CN(C)Cc1ccccc1 | i | -0.8
Cc1noc(C)c1NC(=O)Nc1ccc2c(c1)C(=O)N([C@@H](C)CO)C[C@@H](C)[C@@H](CN(C)S(=O)(=O)c1cccs1)O2 | i | -4.2
